# Bioassay records from PubChem.
# Ecoli rRNA inh: inhibits bacterial ribosomal RNA function over humanized ribosomes; AID 720706; GFP signal change (wild-type ribosome), % (test concentration not listed); E. coli WT GFP vs humanized-ribosome RFP mutants, fluorescence, 24 h; stronger effect = lower value; DMSO median 0, no signal -100; 1.6% of 350,000 active;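 active means significant combined selectivity score with lowered wild-type GFP, culture density cut under 30%, mutant RFP and density less affected; inactive means any of these conditions unmet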; further: one replicate is shown; some compounds called inactive have numbers as strong as hits
# FGF22 binding: shifts melting point of recombinant human FGF22; recombinant FGF22 thermal shift, SYPRO orange fluorescence; percent of sucrose octasulfate shift, DMSO zero; AID 651658; Q9HCT0; calls only at 9.99 µM; 1.5% of 340,000 active;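 active means melting point raised past a set limit in the mean and every replicate; inconclusive means no clear call; three in four hits are not shown here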
# Target sequence (Q9HCT0 whole entry, looked up): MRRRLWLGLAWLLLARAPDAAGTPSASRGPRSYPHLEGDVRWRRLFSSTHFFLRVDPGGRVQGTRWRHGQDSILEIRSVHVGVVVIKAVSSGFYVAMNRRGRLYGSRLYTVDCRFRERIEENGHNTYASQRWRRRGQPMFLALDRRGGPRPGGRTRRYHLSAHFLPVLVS
# AF4-AF9 inh: MLL-AF4/AF9 protein interaction inhibition | AID 651704 | 0.47% of 350,000 active | AlphaScreen, biotin-AF4 peptide binding to FLAG-AF9 | P42568 | inhibition, % at 10 µM;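 active means every replicate reaching a set inhibition limit, whatever the replicate mean, cut at about 25% in these data; inconclusive means mean inhibition reaches that limit but some replicates miss it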;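 further: 0% = plate neutral control median and 100% = total signal loss; the record names both 10 and 1 µM as test concentration; the first replicate is given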
# Target sequence (P42568 whole entry, looked up): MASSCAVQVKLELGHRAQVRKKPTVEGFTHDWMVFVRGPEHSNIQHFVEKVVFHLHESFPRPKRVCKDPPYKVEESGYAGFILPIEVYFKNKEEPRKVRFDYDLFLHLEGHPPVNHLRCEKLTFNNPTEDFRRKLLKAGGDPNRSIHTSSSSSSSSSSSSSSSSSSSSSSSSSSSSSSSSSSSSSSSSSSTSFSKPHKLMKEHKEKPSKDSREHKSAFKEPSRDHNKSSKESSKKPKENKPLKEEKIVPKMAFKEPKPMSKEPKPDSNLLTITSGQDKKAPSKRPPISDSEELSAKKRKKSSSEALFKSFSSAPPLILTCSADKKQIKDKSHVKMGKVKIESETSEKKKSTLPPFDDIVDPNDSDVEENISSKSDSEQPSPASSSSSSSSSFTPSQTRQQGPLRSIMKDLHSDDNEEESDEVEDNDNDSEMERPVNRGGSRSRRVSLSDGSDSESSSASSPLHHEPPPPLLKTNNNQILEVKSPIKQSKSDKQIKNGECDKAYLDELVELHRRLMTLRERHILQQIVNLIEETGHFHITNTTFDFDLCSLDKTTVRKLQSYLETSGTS
# Ecoli rRNA inh OD600: further read-out of Ecoli rRNA inh, marked with its call; OD600 change, %; measured here: OD600 growth;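 optical density of the mix in the first replicate; 0 = DMSO median and -100 = no signal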
# Ecoli rRNA inh RFP: second read-out of Ecoli rRNA inh, no call of its own (marks repeat the call); RFP signal change, %; measured here: RFP humanized mutant strains;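 first replicate; 0 = DMSO median and -100 = no signal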
# Numbers without * were called inactive; i = inactive; ? = inconclusive.
SMILES,Ecoli rRNA inh,Ecoli rRNA inh OD600,Ecoli rRNA inh RFP,FGF22 binding,AF4-AF9 inh
C[C@@H]1CN([C@@H](C)CO)C(=O)c2cc(NC(=O)NC3CCCCC3)ccc2O[C@H]1CN(C)Cc1ccc(C(F)(F)F)cc1,-7.0,-7.5,0.7,i,-0.2
O=C(CN1CCOCC1)NCC[C@H]1CC[C@@H](NS(=O)(=O)c2ccc(Cl)cc2)[C@H](CO)O1,0.4,1.6,-0.6,i,-1.2
COc1cccc(-c2ccc3c(c2)O[C@H](CN(C)Cc2ccncc2)[C@@H](C)CN([C@@H](C)CO)S3(=O)=O)c1,-40.5,-56.9,7.7,i,7.8
C/C=C/c1ccc([C@H]2[C@@H](CO)N(Cc3cncnc3)C23CN(C(=O)CC2CC2)C3)cc1,-0.4,-9.3,-0.4,i,1.3
COc1cccc(OC)c1OCCN1CCC(C(=O)NC(c2ccccc2)c2ncccc2C)CC1 (configuration not stated),6.3,17.3,1.3,i,-0.7
C[C@H](CO)N1C[C@H](C)[C@H](CN(C)Cc2ccc(Cl)c(Cl)c2)Oc2c(NC(=O)Nc3cccc4ccccc34)cccc2C1=O,1.6,9.7,2.5,i,1.5
CCCNC(=O)Nc1ccc2c(c1)OC[C@@H](C)N(Cc1cncnc1)C[C@H](C)[C@@H](OC)CN(C)C2=O,1.0,3.4,-0.2,i,-0.6
C[C@@H]1CN([C@H](C)CO)C(=O)c2cc(NC(=O)CCC(F)(F)F)ccc2O[C@H]1CN(C)C,3.0,11.3,0.5,i,-3.2
COCC(=O)N1C[C@@H]2[C@H](c3ccccc31)[C@@H](CO)N2C(=O)c1ccccc1F,3.6,3.9,0.6,i,-2.7
COCC(=O)Nc1ccc2c(c1)OC[C@H](C)N(C(=O)NC(C)C)C[C@H](C)[C@H](OC)CN(C)C2=O,1.1,-2.0,-1.2,i,-2.8
O=C(C[C@@H]1C[C@H]2c3cc(NC(=O)C4CCC4)ccc3O[C@H]2[C@@H](CO)O1)NCc1ccccc1,-1.8,-1.0,0.1,i,-0.3
C[C@H](CO)N1C[C@H](C)[C@@H](CN(C)S(=O)(=O)c2ccccc2)Oc2ccc(NS(=O)(=O)c3ccc(Cl)cc3)cc2CC1=O,-6.2,-2.8,3.5,i,-1.0
CC(C)NC(=O)N(C)C[C@@H]1OCc2ccccc2-c2c(n(C)c3ccccc23)C(=O)N([C@H](C)CO)C[C@H]1C,2.5,5.3,1.0,i,-4.3
COc1ccc(-c2ccc3c(c2)O[C@H](CN(C)C(=O)c2ccccc2F)[C@@H](C)CN([C@@H](C)CO)S3(=O)=O)cc1,-5.5,-3.1,6.6,i,1.2
Cc1ccc(S(=O)(=O)Nc2ccc3c(c2)CC(=O)N([C@@H](C)CO)C[C@@H](C)[C@@H](CN(C)C(=O)Nc2ccc4c(c2)OCO4)O3)cc1,0.2,-0.6,0.3,i,1.0
C/C=C/c1ccc([C@H]2[C@H]3CN(C(=O)Nc4cccc(OC)c4)CC(=O)N3[C@H]2CO)cc1,1.4,-1.3,0.0,i,0.0
CCCN1C[C@@H](C)[C@H](OC)CN(C)C(=O)c2cc(NC(=O)c3ccccc3F)ccc2OC[C@@H]1C,2.9,0.6,0.7,i,-2.9
C[C@@H]1CN([C@H](C)CO)C(=O)Cc2cc(NS(=O)(=O)c3ccc(Cl)cc3)ccc2O[C@@H]1CN(C)Cc1ccc(Cl)c(Cl)c1,4.5,10.8,8.0,i,-1.6
O=C(N[C@@H]1C=C[C@@H](CC(=O)N2CCc3ccccc3C2)O[C@@H]1CO)C1CCC1,3.8,-0.1,-1.5,i,4.6
O=C(C[C@@H]1C=C[C@H](NS(=O)(=O)c2ccccc2)[C@@H](CO)O1)N1CCc2ccccc2C1,-3.7,4.1,-1.6,i,-2.9
Cc1cccc(-c2ccccc2[C@@H]2[C@H](C#N)N(c3ncc(-c4ccccc4)s3)[C@H]2CO)c1,-0.8,20.1,-0.3,i,-0.8
C[C@H](CO)N1C[C@H](C)[C@H](CN(C)C(=O)Nc2ccc(F)cc2)Oc2c(NC(=O)NC3CCCCC3)cccc2C1=O,0.5,-2.8,-1.0,i,0.7
CNC[C@@H]1OCCCC[C@@H](C)Oc2ccc(NS(=O)(=O)c3ccc(C)cc3)cc2C(=O)N([C@H](C)CO)C[C@H]1C,7.4,7.1,-1.2,i,9.2
CCN(C[C@H]1N[C@@](CC)(C(=O)OC)[C@H]2C(=O)N(Cc3ccccc3)C(=O)[C@@H]12)S(=O)(=O)c1ccc(OC(F)(F)F)cc1,-0.6,4.2,-0.3,i,-1.4
CO[C@H]1CN(C)C(=O)c2ccc(NC(=O)CC(F)(F)F)cc2OC[C@@H](C)N(C(=O)c2ccccc2F)C[C@H]1C,0.4,-0.1,8.4,i,-13.5
NCC[C@H]1CC[C@@H](NC(=O)C2CCCCC2)[C@H](CO)O1,-0.5,-0.5,0.1,i,3.0
O=S(=O)(c1cccs1)N1CCCCN2[C@H](CO)[C@H](c3ccc(/C=C/c4ccccc4)cc3)[C@H]2C1,-6.1,9.8,-0.2,i,4.1
C[C@@H]1CN([C@H](C)CO)C(=O)c2cc(NC(=O)Nc3ccccc3)ccc2O[C@H]1CN(C)Cc1ccc(C(F)(F)F)cc1,-0.1,21.8,0.6,i,-2.0
CC(C)NC(=O)N(C)C[C@@H]1Oc2ncc(C#CCC3CCCC3)cc2C(=O)N([C@@H](C)CO)C[C@H]1C,-0.5,4.7,-1.8,i,-7.3
Cc1noc(C)c1S(=O)(=O)Nc1ccc2c(c1)C(=O)N([C@@H](C)CO)C[C@H](C)[C@H](CN(C)S(=O)(=O)c1ccc(F)cc1)O2,-1.9,-6.8,2.5,i,2.5
Cc1ccc2nc(-c3ccccc3)c(CC3CCCCC3)n2c1,-0.4,11.3,5.9,i,1.3
CCOc1ccc2nc(S(=O)(=O)NC(=O)C3(C)CCN3C(=O)c3cccc(F)c3)sc2c1 (configuration not stated),-7.8,0.7,-4.5,i,-3.1
CO[C@H]1CN(C)C(=O)c2ccc(NS(=O)(=O)c3ccc(C)cc3)cc2OC[C@H](C)NC[C@@H]1C,-0.2,0.9,-0.2,i,-1.3
O=C(Nc1ccc(Cl)cc1)C1Cc2c(-c3ccccc3)ccnc2O1 (configuration not stated),-40.7,-60.5,-19.1,i,-2.6
CN(C)C(=O)C[C@@H]1CC[C@@H]2[C@H](COC[C@H](O)CN2S(=O)(=O)c2ccccc2Cl)O1,-2.8,-14.2,-1.3,i,-0.7
CCc1nc2ccc(C(=O)Nc3cccc(OCC(=O)N(C)C)c3)cn2c1N(C)C(=O)c1cccc(OC)c1,3.3,-4.3,-2.3,i,1.1
C[C@@H]1CN([C@H](C)CO)S(=O)(=O)c2ccc(C#CC3CCCC3)cc2O[C@@H]1CN(C)C(=O)Cc1ccccc1,0.3,-1.4,-0.5,i,-10.0
CC(OC(=O)Cc1ccc(Cl)cc1)C(=O)NC1CCCCC1C (configuration not stated),4.6,5.0,-1.4,i,-1.7
Nc1nc(-c2ccccc2)c(CC(=O)O)s1,-1.8,-4.1,-2.2,i,-1.1
C/C=C/c1cnc2c(c1)C(=O)N([C@H](C)CO)C[C@H](C)[C@H](CN(C)C(=O)NC1CCCC1)O2,4.5,10.4,-1.5,i,-0.6

# Four consecutive compounds already listed, for reference:
SMILES,Ecoli rRNA inh,Ecoli rRNA inh OD600,Ecoli rRNA inh RFP,FGF22 binding,AF4-AF9 inh
CO[C@H]1CN(C)C(=O)c2ccc(NS(=O)(=O)c3ccc(C)cc3)cc2OC[C@H](C)NC[C@@H]1C,-0.2,0.9,-0.2,i,-1.3
O=C(Nc1ccc(Cl)cc1)C1Cc2c(-c3ccccc3)ccnc2O1 (configuration not stated),-40.7,-60.5,-19.1,i,-2.6
CN(C)C(=O)C[C@@H]1CC[C@@H]2[C@H](COC[C@H](O)CN2S(=O)(=O)c2ccccc2Cl)O1,-2.8,-14.2,-1.3,i,-0.7
CCc1nc2ccc(C(=O)Nc3cccc(OCC(=O)N(C)C)c3)cn2c1N(C)C(=O)c1cccc(OC)c1,3.3,-4.3,-2.3,i,1.1

# Following part:
SMILES,Ecoli rRNA inh,Ecoli rRNA inh OD600,Ecoli rRNA inh RFP,FGF22 binding,AF4-AF9 inh
CCCNC(=O)N[C@H]1CC[C@@H](CCNS(=O)(=O)c2cccc(F)c2)O[C@@H]1CO,-0.3,1.5,0.2,i,-0.6
COc1ccc(CN(C)C[C@H]2Oc3c(NC(=O)Nc4ccc(F)cc4)cccc3C(=O)N([C@H](C)CO)C[C@@H]2C)cc1,4.7,-10.5,0.0,i,3.7
Cc1ccccc1S(=O)(=O)N1CCCCN2[C@H](C1)[C@H](c1ccc(-c3cccc(F)c3)cc1)[C@@H]2CO,-2.4,-7.1,-0.2,i,-2.6
CCC(=O)N1C[C@@H]2[C@H](c3ccccc31)[C@@H](CO)N2C(=O)Nc1ccccc1,1.6,10.3,-0.3,i,-1.8
O=C(C[C@H]1CC[C@@H](NS(=O)(=O)c2ccccc2)[C@@H](CO)O1)N1CCc2ccccc2C1,0.8,5.5,-3.0,i,-4.5
CCOC(=O)c1sc(NC(=O)CSc2nc(-c3ccco3)cc(C(F)(F)F)n2)c(C(=O)OCC)c1C,10.9,-0.6,2.0,i,-0.2
C[C@@H]1CN([C@H](C)CO)C(=O)c2cc(NC(=O)Nc3ccc(C(F)(F)F)cc3)ccc2O[C@@H](C)CCCCO[C@@H]1CN(C)Cc1ccccc1,0.2,-3.2,1.0,i,-0.2
C[C@H](CO)N1C[C@H](C)[C@@H](CN(C)S(=O)(=O)c2ccc(F)cc2)Oc2c(NC(=O)CCCCCC(=O)Nc3ccccc3N)cccc2C1=O,-5.9,-2.6,0.2,i,-1.4
C[C@@H]1CN([C@H](C)CO)C(=O)Cc2cc(NS(=O)(=O)c3ccc(F)cc3)ccc2O[C@H]1CN(C)C(=O)Nc1ccc(C(F)(F)F)cc1,0.1,-5.9,1.9,i,0.0
Cc1nnc(NC(=O)CSc2nnc(CNC(=O)c3ccccc3F)n2C(C)C)s1,8.4,14.5,1.0,i,-11.4
COCC#Cc1ccc2c(c1)O[C@H](CN(C)C(=O)C1CCOCC1)[C@@H](C)CN([C@H](C)CO)S2(=O)=O,2.0,-0.6,3.1,i,-1.6
OC(c1ccccc1)c1nc(-c2cncnc2)cs1 (configuration not stated),5.1,-5.8,-2.4,i,-6.3
CC(=O)Nc1ccc2c(c1)C(=O)N(C)[C@H]1CC[C@H](CC(=O)Nc3cccc(C(C)C)c3)O[C@@H]1CO2,-4.4,-6.8,-2.3,i,-1.0
CN(C)C(=O)c1cccc(-c2ccc3c(c2)[C@H]2[C@H](CCN2C(=O)C2CCOCC2)[C@H](CO)N3)c1,2.5,16.4,-3.3,i,-3.4
C[C@@H](c1ccccc1)N1C[C@@H](COCc2ccccc2)Oc2cc(N3CCC[C@H]3C(N)=O)ccc2S1(=O)=O,-19.4,-28.9,-4.3,i,-0.2
CC[C@]12c3[nH]c4ccc(OC)cc4c3CCN1C(=O)C(CC(=O)NCCc1ccccn1)C[C@@H]2C(=O)N1CCN(C(=O)C2CC2)CC1 (some centres not stated),13.4,14.8,-0.7,i,0.2
C[C@@H]1CN([C@@H](C)CO)C(=O)c2cc(NS(=O)(=O)c3cn(C)cn3)ccc2O[C@@H](C)CCCCO[C@@H]1CN(C)C(=O)c1ccncc1,2.2,3.9,2.5,i,1.9
CCN1[C@@H]2c3ccc(-c4ccccc4OC)c(=O)n3C[C@@H]2[C@@H](CO)[C@@H]1C(=O)NCc1ccc(F)cc1,-4.1,-1.8,-1.6,i,0.3
C[C@@H]1CN([C@H](C)CO)C(=O)c2cc(NS(C)(=O)=O)ccc2O[C@H]1CN(C)S(=O)(=O)c1ccc(F)cc1,-2.3,0.3,-2.9,i,-1.1
C[C@@H]1CN([C@H](C)CO)C(=O)Cc2cc(NC(=O)CCCCCC(=O)Nc3ccccc3N)ccc2O[C@H]1CN(C)Cc1ccc(Cl)c(Cl)c1,-3.8,0.8,1.5,i,2.1
CO[C@H](CN(C)Cc1ccc2c(c1)OCO2)[C@H](C)CN(C(=O)Nc1ccc(F)cc1)[C@@H](C)CO,0.5,7.3,-1.4,i,2.0
CO[C@H]1CN(C)C(=O)c2cc(NS(=O)(=O)c3ccccc3Cl)ccc2OC[C@@H](C)NC[C@@H]1C,4.4,8.0,-1.8,i,-1.9
COc1cccc(S(=O)(=O)N[C@H]2C=C[C@H](CC(=O)NCc3ccc(F)cc3)O[C@H]2CO)c1,-4.5,-0.4,-0.8,i,-1.4
Cc1cccc(COC[C@H](Cc2ccccc2)N2CCN(C(=O)c3ccc(C(F)(F)F)cc3)CCC2=O)c1,-3.1,-6.5,-1.4,i,0.5
CCOC(=O)C1(C)C(C(=O)OC)=C(c2ccc(OC)cc2)c2ccccc2N1C(=O)OC (configuration not stated),-18.6,-16.9,-3.6,i,?
O=C(NC1CCCC1)[C@@H]1[C@@H](CO)[C@@H]2Cn3c(ccc(-c4ccncc4)c3=O)[C@@H]2N1CCc1ccccc1,-4.0,-9.9,5.2,i,1.7

# A portion of the library. The share of hits here may be higher or lower than overall.
